Screening data from PubChem.
Sfp inh – inhibitors of Bacillus subtilis Sfp phosphopantetheinyl transferase; Q9F4F7; Biochemical Sfp PPTase activity, qHTS; Potency, µM, for the others: max response, negative = inhibition, usual class: inhibitors; 3.5% of 310,000 active; AID 1490; active = well fitted inhibition curve with a large enough effect; inconclusive = small, poorly fitted or top-dose-only effect, or another doubt; inactive = no such curve, though single readings can be large or run the other way;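 also: the enzyme is Sfp with the accession as filed and its product quenches rhodamine fluorescence; potency is read from the fitted curve at half-maximal effect; 0% = enzyme reaction without inhibitor and -100% = no enzyme wells; top concentration of the series not given in the record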
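Step 1, compound plus 15 nM Sfp-PPTase, 15 min, room temperature. Step 2, add rhodamine-CoA (5 uM) and BHQ-2-YbbR (12.5 uM). Step 3, read 525/598 nm fluorescence at 0 and 30 min.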
ClpP mod – qHTS Assay for Activators of ClpP | purified B. subtilis ClpP, FRET peptide cleavage, 20 min | Potency, µM (titrated, usually from 57.5 µM), for the others: at the highest dose activity change, negative = active | 1.9% of 340,000 active; active = well fitted falling curve with a large enough effect; inconclusive = small, poorly fitted or top-dose-only effect; inactive = no such curve, though single readings can be large or run the other way; also: potency is read from the fitted curve at half-maximal effect; the source files actives as falling curves though it sought activators and does not explain the sign; nearly all actives have a fitted effect of over 65% in size; many hits overshoot -100%
Target sequence (P80244 whole entry, looked up): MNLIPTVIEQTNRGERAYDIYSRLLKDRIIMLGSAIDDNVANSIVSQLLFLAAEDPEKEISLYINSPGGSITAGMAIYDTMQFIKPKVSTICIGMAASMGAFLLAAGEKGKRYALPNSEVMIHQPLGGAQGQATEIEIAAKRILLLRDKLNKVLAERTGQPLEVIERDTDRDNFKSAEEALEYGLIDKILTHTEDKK
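FRET quenching reversal measured ClpP activation: 10 microg/mL B. subtilis ClpP at pH 8 with the FRET-FV decapeptide, read at 430 nm after 320 nm excitation. The 20-min minus 0-min signal was scaled between DMSO/no-enzyme wells and ADEP (5.8 microM final).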
TRPV1 PAM – human TRPV1 potentiation; Q8NER1; TRPV1-expressing cells, Fluo-8 calcium influx, capsaicin EC20 potentiation; host cell line not named in the record; control for the full effect not named in the record; potentiation, % at 8.33 µM; 0.02% of 320,000 active; AID 540277; active means potentiation above 80%; inconclusive means 30% to 80%; inactive means below 30%; also: 0% is about no effect
Target sequence (Q8NER1 whole entry, looked up): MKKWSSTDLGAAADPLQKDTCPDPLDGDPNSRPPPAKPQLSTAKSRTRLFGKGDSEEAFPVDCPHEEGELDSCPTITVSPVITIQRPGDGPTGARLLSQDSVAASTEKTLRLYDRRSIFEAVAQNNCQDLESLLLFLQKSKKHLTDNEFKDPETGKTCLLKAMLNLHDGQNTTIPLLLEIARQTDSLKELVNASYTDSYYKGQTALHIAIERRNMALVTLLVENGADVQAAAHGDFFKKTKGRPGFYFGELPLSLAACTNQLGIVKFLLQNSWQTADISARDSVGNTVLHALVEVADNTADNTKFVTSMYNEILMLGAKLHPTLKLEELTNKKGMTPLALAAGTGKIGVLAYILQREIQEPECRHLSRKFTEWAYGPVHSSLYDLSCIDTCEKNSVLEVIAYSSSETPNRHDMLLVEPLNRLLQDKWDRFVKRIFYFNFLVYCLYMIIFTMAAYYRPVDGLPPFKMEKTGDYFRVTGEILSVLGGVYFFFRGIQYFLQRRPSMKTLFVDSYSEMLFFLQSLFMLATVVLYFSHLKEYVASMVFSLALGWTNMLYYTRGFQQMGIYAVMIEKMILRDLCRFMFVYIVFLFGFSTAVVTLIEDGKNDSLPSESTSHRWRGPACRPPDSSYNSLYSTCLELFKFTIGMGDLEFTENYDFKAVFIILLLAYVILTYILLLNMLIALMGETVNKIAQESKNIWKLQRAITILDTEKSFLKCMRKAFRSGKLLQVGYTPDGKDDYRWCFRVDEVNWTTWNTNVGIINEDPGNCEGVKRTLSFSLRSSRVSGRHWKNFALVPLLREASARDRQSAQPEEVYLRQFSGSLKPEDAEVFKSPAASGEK
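Cells expressing TRPV1 were dye-loaded with Fluo-8 and read kinetically: 10 s baseline, 3 min after compound (agonist portion), then 2 min after EC20 capsaicin (allosteric enhancer portion). Calcium-bound dye fluorescence at 480/520 nm.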
Menin MLL FP FL – inhibitors of human menin-MLL interaction, wild-type MLL peptide; 290,000 tested, under 10 active; Fluorescence polarization, fluorescein-MLL peptide displacement from menin; FP activity change, % at 61.4 µM; inconclusive = falling polarisation curve, or a change in total fluorescence; inactive = total fluorescence flat and polarisation flat or rising; no compound was filed as active; the % refers to the polarisation; negative = inhibition;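 also: % of control where 0% means no effect; inhibitors lower the polarisation; unlabelled MLL peptide was the positive control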
TRPML1 inh – human mucolipin-1 channel inhibition | 0.02% of 390,000 active | AID 624415 | TRPML1-inducible cells, Ca2+ dye fluorescence, FDSS; hits give low values; inhibition of EC80 agonist-evoked calcium signal | activity change, negative = inhibition, % (concentration not given with the values) | Q9GZU1; in the data active means activity change below about -50%; inconclusive means about -30% to -50%; inactive means above about -30%;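 also: stimulus is agonist 54-4 at its EC80 concentration; % is scaled to controls: 0 for no effect and ±100 for the full control effect; compound concentration not given in the record; the text of the record puts the active cut at -80%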
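TRPML1-DL cells, Tet-induced overnight (~16 h, 37 °C) at 1,500 cells/well, were loaded with Ca8 no-wash dye plus quencher for 45-90 min at room temperature. Compounds were pinned during FDSS kinetic reading; agonist 54-4 at EC80 (4 uM final) then added.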
PINK1 modulator – PINK1 expression modulation; 0.2% of 410,000 active; PINK1 immunofluorescence, high-content cytometry, 24 h; AID 624263; Potency, µM (series often up to 76.6 µM), without a hit: at the highest dose activation (PINK1 increase), usual class: activators; active = well fitted activation curve with a large enough effect; inconclusive = small, poorly fitted or top-dose-only effect; inactive = flat fitted curve, though single readings scatter; cell line not stated here;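 also: potency is read from the fitted curve at half-maximal effect; % of control where 0% means no effect; nearly all actives have a fitted effect of over 65% in size; a mitochondrial uncoupler was the plate control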
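Stable cell line treated 24 h with compounds at 5 concentrations (CCCP controls), then fixed and immunostained for PINK1 plus nuclear and cell stains; PINK1 immunofluorescence quantified by laser-scanning microplate cytometry.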
TRPML1 ag – agonists of human TRPML1 channel. TRPML1-expressing cells, Ca2+ dye fluorescence, FDSS; host cell line not named in the record; reference of the full effect not given here. activation, % (test concentration not listed). 0.12% of 410,000 active. AID 624414; in the data active = activation above about 50%; inconclusive = about 30% to 50%; inactive = below about 30%; also: 0% is about no effect; the text of the record puts the active cut at 80%
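Tet-induced TRPML1-DL cells, 1,500 per well, cultured overnight, were loaded with a no-wash Ca2+ dye for 45–90 min. Calcium fluorescence was recorded on the FDSS for 110 s after compound addition, before the EC80 agonist (4 uM 54-4) was added.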
The depositor's hits bear a star; ? = inconclusive; nt = no result given; [ ] = another dose, or the depositor's remark.

smiles	TRPML1 inh	Menin MLL FP FL	ClpP mod	TRPV1 PAM	TRPML1 ag	PINK1 modulator	Sfp inh
COCCNC(=O)CN(C(=O)Cn1nnc2ccccc21)c1ccc(C)c(F)c1	-3	-3.2	-0.3%	-12	-0.6	-3.7%	12%
O=C(Nc1cccc(-c2nn[nH]n2)c1)c1ccc(Cl)s1	12	0.8	0.4%	-11	-0.6	2.1%	-1%
CCOC(=O)c1sc(NC(=O)c2nc3nc(C)cc(C(F)F)n3n2)c(C(=O)OC(C)C)c1C	1	nt	-0.4%	nt	-0.8	1.1%	nt
CCC1(C(=O)OC)NC(c2cccc(F)c2)C2C(=O)N(C)C(=O)C21 (configuration not stated)	6	nt	-3.2%	nt	0.5	-0.7%	nt
CCCn1nnc(NC(=O)c2sc3ccccc3c2Cl)n1	9	1.9	-7.0%	-17	-0.4	nt	20%
CC(C)c1ccccc1OCCCCCNCCO	0	1.5	0.7%	-11	0.3	-2.3%[38.3 µM]	3%
O=C(NCc1ccco1)c1ccc2c(=O)n(-c3ccccc3)c(=S)[nH]c2c1	22	2.5	0.1%	4	-0.4	-1.3%	-4%
Cc1cc(C(=O)NCc2cc(F)cc3c2OCOC3)nn1C	1	2.3	nt	-6	0.0	-0.2%	17%
CCc1ccccc1OCc1nnc(N)s1	1	5.9	0.7%	7	5.3	3.0%	10%
COc1ccccc1-n1c(SCC(=O)N(C)C2CCS(=O)(=O)C2)nc2ccccc2c1=O (configuration not stated)	-8	5.3	-0.4%	-1	0.3	4.8%[38.3 µM]	1%
Cc1ccc(CC(=O)NCC(C)C)cc1	-17	-4.2	-0.9%	13	0.4	6.3%[38.3 µM]	5%
O=C(NCCCn1ccnc1)/C(=C/c1cccnc1)NC(=O)c1ccco1	-4	5.6	-0.5%	-16	-0.5	-0.3%	25%
COc1ccc(CNC(=O)c2cn(Cc3ccc(S(=O)(=O)N(C)C)cc3)c(=O)s2)cc1	nt	nt	-4.0%	nt	-0.4	-0.2%	nt
COc1ccccc1/C=C\C(=O)NCC(=O)N/N=C(/C)c1cccc([N+](=O)[O-])c1	10	0.7	nt	27	1.1	-1.6%	5%
Cc1cc(C(=O)OCC(=O)Nc2c(F)cccc2F)c(C)n1-c1ccccc1	25	3.2	nt	-6	1.5	0.6%	17%
CN(C)S(=O)(=O)Nc1cccc(NC(=O)CC23CC4CC(CC(C4)C2)C3)c1	21	0.3	nt	-9	0.7	-0.2%	-2%
O=C(Nc1ccc2c(c1)OCCO2)C1CCCN1C(=O)Nc1ccccc1 (configuration not stated)	6	-0.8	nt	5	-0.5	-0.7%	10%
CC(C)N(Cc1cc2ccccc2[nH]c1=O)C(=O)c1cccc([N+](=O)[O-])c1	-6	-0.7	nt	13	0.4	0.1%	3%
CCC(C(=O)Nc1ccccc1C(=O)OC)n1nc(C)c2c(C)n(-c3ccc(C)cc3)nc2c1=O (configuration not stated)	62	nt	4.5%	nt	1.9	-0.2%	nt
Cc1sc2nc(CN(C(=O)NC3CCCCC3)C3CCCC3)[nH]c(=O)c2c1C	20	?	-1.6%	-9	5.3	2.6%	3%
O=C(c1ccc(-n2cncn2)c([N+](=O)[O-])c1)N1CCN(S(=O)(=O)c2c(F)cccc2F)CC1	3	nt	1.6%	-8	-1.0	1.8%	nt
CCCc1nnc(SCC(=O)N2CCCC(C)C2)n1CCCOC (configuration not stated)	-8	0.5	0.2%	-19	2.9	-0.4%	15%
CCOC(=O)N1CCN(C(=O)c2ccc(Cl)c(S(=O)(=O)Nc3ccccc3)c2)CC1	-6	4.6	-1.3%	2	1.6	0.1%	4%
O=C(N/N=C/C(Cl)=C/c1ccccc1)c1ccc2c(c1)OCO2	22	nt	145%	1	-0.6	17%	nt
COc1cc2c(cc1NC(=O)C(C)Sc1cccc[n+]1[O-])oc1ccccc12 (configuration not stated)	-2	9.8	nt	-42	-0.1	0.0%	-54%
COc1nn(CC(=O)N2N=C(C)CC2(O)C(F)(F)F)cc1[N+](=O)[O-] (configuration not stated)	-9	1.5	0.3%	-8	0.0	-3.5%[38.3 µM]	5%
O=C(NCCN1CCCC1)C1CC(=O)N(C2CCCCC2)C1 (configuration not stated)	-4	3.2	-0.3%	18	-0.7	2.2%	11%
C=C1c2ccccc2S(=O)(=O)N(Cc2ccccc2)C1COCc1ccccc1 (configuration not stated)	63	1.5	-1.9%	3	1.0	1.7%	-5%
CCOC(=O)Cn1c(=O)oc2cc(S(=O)(=O)NCCC(C)C)ccc21	-11	-1.7	-3.7%	23	-0.6	1.1%	7%
CCOC(=O)C1CCN(C(=O)c2cc3cc4cc(OC)ccc4nc3o2)CC1	-1	-2.1	18µM*	-11	-0.8	-1.0%	8%
CCc1cc2c(-c3ccccc3)cc(=O)oc2cc1OC(C)C(C)=O (configuration not stated)	2	-1.9	-3.5%	-6	-0.5	0.1%	-15%
Nc1ccc(C(=O)N/N=C/c2c[nH]c3ccccc23)cc1	-11	4.3	-11%	18	2.8	2.8%	-10%
Cc1ccc(CSCCNC(=O)CN(c2ccccc2)S(C)(=O)=O)cc1	-6	0.2	nt	-10	1.7	0.2%	-1%
CC1(C)CC(=O)C2=C(C1)Oc1ncn3nc(-c4cccnc4)nc3c1C2c1ccccc1 (configuration not stated)	-9	2.5	2.7%	-7	-0.6	0.8%	9%
Cc1ccc(NC(=O)Cn2cc(S(=O)(=O)c3ccc(C)cc3)c(=O)c3cc(F)ccc32)cc1	5	5.1	0.8%	-6	-0.3	?	-12%
NC(=O)C1CCCN(C(=O)c2ccc(-c3cccc(Cl)c3Cl)o2)C1 (configuration not stated)	1	nt	nt	-6	0.4	1.3%	nt
COc1nc2ccccc2nc1N1CCN(Cc2ccc3c(c2)OCO3)CC1	-11	1.1	-26%	18	0.7	3.2%	8%
CCOc1cc(S(=O)(=O)N2CCC(c3nc4ccccc4s3)CC2)c(OCC)cc1S(=O)(=O)N1CCCCC1	11	3.1	12%	1	0.0	16%[38.3 µM]	0%
CCC(=O)N1N=C(c2ccc(NS(C)(=O)=O)cc2)CC1c1ccc(C)cc1 (configuration not stated)	-4	-2.9	-62%	2	-0.5	15%[38.3 µM]	7%
C[C@@H]1CN([C@@H](C)CO)S(=O)(=O)c2ccc(Br)cc2O[C@@H]1CN(C)S(=O)(=O)c1cn(C)cn1	24	nt	1.1%	nt	-0.6	0.5%	nt
Cc1ccccc1/C=N/NC(=O)Cc1ccc(Cl)cc1	6	0.2	nt	18	0.7	9.1%	1%
CCS(=O)(=O)N1CCC(C(=O)NCCc2ccccc2)CC1	22	1.1	-0.2%	-6	-0.4	nt	5%
CCC(=O)N1CCCC(C(=O)Nc2nc3ccccc3[nH]2)CC1 (configuration not stated)	-1	nt	1.3%	nt	-0.4	1.6%	nt
Cc1cc2c(cc(C(=O)OCC(=O)NC3CCCCC3)n2C)o1	17	nt	nt	nt	-0.1	2.9%	nt
CC(=O)CCCC(NS(=O)(=O)CCC(Cl)(Cl)Cl)c1ccccc1 (configuration not stated)	2	0.9	1.2%	-5	-0.2	8.0%	20%
CCC12CN3CCN(CC(C3)/C1=N\NC(=O)c1ccc(C(C)(C)C)cc1)C2	2	nt	3.4%	-26	-1.3	-0.1%	18%
COc1ccc(CNC(=O)c2cnc3sc(N4CCC(C)CC4)nn3c2=O)c(OC)c1	-6	nt	-7.2%	nt	-1.1	0.4%	nt
Clc1cccc(Cc2c(-c3cccc(Br)c3)nc3c4ccccc4ccn23)c1	nt	nt	4.7%	nt	0.1	0.4%	nt
Cc1nn(-c2ccc(Cl)c(Cl)c2Cl)c(=O)c2ccccc12	-11	8.0	-0.5%	0	0.5	7.8%	3%
COc1ccc(CC(=O)Nc2cc(C)ccn2)cc1	0	1.8	-0.9%	-13	1.1	-9.8%[38.3 µM]	2%

Continued:
smiles	TRPML1 inh	Menin MLL FP FL	ClpP mod	TRPV1 PAM	TRPML1 ag	PINK1 modulator	Sfp inh
CC(=O)N1N=C2c3ccccc3CCC2C1c1ccc(F)cc1 (configuration not stated)	8	0.4	nt	6	0.3	2.7%	9%
COc1ccc(C#Cc2ccc(C3=CC(=O)CC(C)(C)C3=O)cc2)cc1	32	nt	3.0%	nt	0.7	9.7%	nt
CC(C)Cn1c2c(c(=O)[nH]c1=O)C(C(F)(F)F)(C(F)(F)F)N=C(CCC1CCCCC1)N2	41	nt	-9.3%	-14	1.5	-0.3%	14%
O=C(CSc1nccn1-c1cccc(Cl)c1)Nc1cccc(C(F)(F)F)c1	33	nt	0.9%	nt	1.1	?	nt
CC(C)CCNc1nc2ccccc2nc1NS(=O)(=O)c1cccs1	-25	0.0	nt	21	0.2	0.1%	32%[activator]

Reformatted with two lines to a compound: part of the list above.
Values run as follows: TRPML1 inh | Menin MLL FP FL | ClpP mod | TRPV1 PAM | TRPML1 ag | PINK1 modulator | Sfp inh
CC(C)Cn1c2c(c(=O)[nH]c1=O)C(C(F)(F)F)(C(F)(F)F)N=C(CCC1CCCCC1)N2
→ 41 | nt | -9.3% | -14 | 1.5 | -0.3% | 14%
O=C(CSc1nccn1-c1cccc(Cl)c1)Nc1cccc(C(F)(F)F)c1
→ 33 | nt | 0.9% | nt | 1.1 | ? | nt
COc1ccc(C#Cc2ccc(C3=CC(=O)CC(C)(C)C3=O)cc2)cc1
→ 32 | nt | 3.0% | nt | 0.7 | 9.7% | nt
CC(=O)N1N=C2c3ccccc3CCC2C1c1ccc(F)cc1 (configuration not stated)
→ 8 | 0.4 | nt | 6 | 0.3 | 2.7% | 9%
